VDR inh – vitamin D3 receptor (human) inhibition; VDR-SRC2-3 peptide fluorescence polarization, 2 h; AID 504847; 400,000 tested, 0.93% active; Potency, µM, without a hit: max response, negative = inhibition, hits mostly inhibitors; P11473; active = well fitted inhibition curve with a large enough effect; inconclusive = small, poorly fitted or top-dose-only effect, or another doubt; inactive = no such curve, though single readings can be large or run the other way; note: series mostly up to about 120 µM
Target sequence (P11473 whole entry, looked up): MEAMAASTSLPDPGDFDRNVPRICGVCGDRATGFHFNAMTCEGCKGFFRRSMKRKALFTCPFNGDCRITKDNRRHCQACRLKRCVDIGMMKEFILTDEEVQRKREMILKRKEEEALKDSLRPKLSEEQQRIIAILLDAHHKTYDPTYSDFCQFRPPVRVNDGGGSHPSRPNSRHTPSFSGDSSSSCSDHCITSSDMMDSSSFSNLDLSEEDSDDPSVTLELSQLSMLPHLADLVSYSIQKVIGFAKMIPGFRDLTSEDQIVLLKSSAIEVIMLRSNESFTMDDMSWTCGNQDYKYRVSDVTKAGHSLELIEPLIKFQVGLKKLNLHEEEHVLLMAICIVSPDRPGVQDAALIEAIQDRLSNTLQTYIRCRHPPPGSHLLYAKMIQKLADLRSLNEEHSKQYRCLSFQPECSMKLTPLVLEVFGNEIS
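FP read-out; VDR + SRC2-3 coactivator peptide; 23 nl compound by pintool; 2 h RT incubation; reagents held at 4 deg C, protected from light.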
Active calls of the source: *; & = joins results of further samples; [ ] = another dose, or the depositor's remark. % is set by controls: 0 for no effect and ±100 for the full control effect; potency is the fitted concentration of half-maximal effect.

The first 3 records (preview)
Results for Cc1c(C(=O)N2CCN(c3ccc(F)cc3)CC2)sc2nc3n(c(=O)c12)CCC3 ?
VDR inh: -14%&14%

What do the screens show for `N#CC1=C(N)NC(SCC(=O)c2ccc(Br)cc2)=C(C#N)C12CCCCC2`?
VDR inh: 6%

How did COc1ccc(C(=O)NNC(=O)CN2CCC(n3nnc4cc(C)ccc43)CC2)cc1 do in these assays?
VDR inh: 1%

The list itself, previewed entries included:
Results for Cc1c(C(=O)N2CCN(c3ccc(F)cc3)CC2)sc2nc3n(c(=O)c12)CCC3 ?
VDR inh: -14%&14%

What do the screens show for `N#CC1=C(N)NC(SCC(=O)c2ccc(Br)cc2)=C(C#N)C12CCCCC2`?
VDR inh: 6%

How did COc1ccc(C(=O)NNC(=O)CN2CCC(n3nnc4cc(C)ccc43)CC2)cc1 do in these assays?
VDR inh: 1%

How did CC1CCN(S(=O)(=O)c2ccc(NC(=O)CN3CCCC3)cc2)CC1 do in these assays?
VDR inh: -12%

How did Cc1ccc(-c2cc(C(=O)O)n(-c3ccc(S(N)(=O)=O)cc3)n2)cc1 do in these assays?
VDR inh: 6%

How did O=C(Nc1cn(-c2ccccc2)nc1-c1ccccc1)c1ccccc1 do in these assays?
VDR inh: 6%

How did CN1CCN(CCCNC(=S)Nc2ccc(F)c(Cl)c2)CC1 do in these assays?
VDR inh: 15%

How did COc1ccc(Cl)cc1NC(=O)COC(=O)c1cc(NS(=O)(=O)c2cccs2)ccc1O do in these assays?
VDR inh: -22%

Results for CC(C)OC(=O)C1C(=O)CC(C)(O)C(C(=O)OC(C)C)C1c1cccnc1 (configuration not stated) ?
VDR inh: 4%

What do the screens show for `C=CCOC(=O)C1=C[C@H](c2cn(C(C)=O)c3ccccc23)[C@@H](CCCO)[C@H](OCC)O1`?
VDR inh: 4%

Results for COc1ccc(/C=N/OC/C(O)=C(\C#N)c2nc3ccccc3[nH]2)cc1OC ?
VDR inh: -8%

Results for COc1ccc(N2CCN(C3CCCN(Cc4ccc(F)cc4Cl)C3)CC2)cc1 (configuration not stated) ?
VDR inh: 6%

What do the screens show for `Cc1cc(/C=C2/SC(=S)N(c3cccc(Cl)c3)C2=O)c(C)n1-c1cccnc1`?
VDR inh: 11%

Results for O=S1(=O)N=C(N(CCO)/N=C/C=C/c2ccccc2)c2ccccc21 ?
VDR inh: 5%

Results for CN(C)CCCN(C(=O)COc1ccccc1)c1nc2ccc(Cl)cc2s1 ?
VDR inh: -16%

How did CN1CCCC2(CCN(C(=O)c3cc(C(F)(F)F)cc(C(F)(F)F)c3)CC2)C1 do in these assays?
VDR inh: inconclusive

What do the screens show for `Cc1nn2c(NC(C)C)c3c(nc2c1-c1ccccc1)CCC3`?
VDR inh: -2%

Results for Clc1nc(-c2ccccc2)ncc1Oc1ccccc1 ?
VDR inh: 0%

How did CCS(=O)(=O)N1CCN(c2ccccn2)CC1 do in these assays?
VDR inh: -6%

How did COc1ccc(N2C(=O)C3CCCN3C2c2ccccc2F)cc1 (configuration not stated) do in these assays?
VDR inh: -4%

What do the screens show for `Cc1cccnc1NC(=O)Nc1cccc(C(F)(F)F)c1`?
VDR inh: -13%

How did Cn1c(CNC(=O)c2ccco2)nnc1SCC(=O)Nc1cccc(F)c1 do in these assays?
VDR inh: 14%

Results for Cc1csc(=O)n1CCC(=O)OC(C)C(=O)Nc1ccc(N2CCOCC2)cc1 (configuration not stated) ?
VDR inh: -26%

What do the screens show for `CCOc1ccc(NCc2cccn2-c2nnc(N3CCC(C(=O)NCCOC)CC3)s2)cc1`?
VDR inh: -6%

6 entries already listed, ordered by molecular weight, smallest number first:
Results for Clc1nc(-c2ccccc2)ncc1Oc1ccccc1 ?
VDR inh: 0%

What do the screens show for `Cc1nn2c(NC(C)C)c3c(nc2c1-c1ccccc1)CCC3`?
VDR inh: -2%

How did COc1ccc(N2C(=O)C3CCCN3C2c2ccccc2F)cc1 (configuration not stated) do in these assays?
VDR inh: -4%

How did Cn1c(CNC(=O)c2ccco2)nnc1SCC(=O)Nc1cccc(F)c1 do in these assays?
VDR inh: 14%

Results for Cc1csc(=O)n1CCC(=O)OC(C)C(=O)Nc1ccc(N2CCOCC2)cc1 (configuration not stated) ?
VDR inh: -26%

What do the screens show for `Cc1cc(/C=C2/SC(=S)N(c3cccc(Cl)c3)C2=O)c(C)n1-c1cccnc1`?
VDR inh: 11%

Next compounds follow:
Results for O=S1(=O)c2ccccc2N(Cc2ccc(Cl)cc2)c2ccccc21 ?
VDR inh: 6%

How did c1cc2c(cc1-c1cnc3n1CCC3)OCCO2 do in these assays?
VDR inh: 4%

Results for C[C@@]12C(=O)NCC(=O)N1[C@@H]1c3cc(Br)ccc3OC[C@@H]1[C@@H]2c1ccccc1 ?
VDR inh: inconclusive

Results for COc1cc(OC)c(C(=O)OCC(=O)Nc2nnc(-c3ccccc3)o2)cc1OC ?
VDR inh: -12%

Results for CCn1nc(C)cc1-c1nnc(Sc2ncc([N+](=O)[O-])s2)n1C ?
VDR inh: 7.9µM*

What do the screens show for `COc1ccc(C=Nc2cccc3c(=O)[nH][nH]c(=O)c23)c2ccccc12`?
VDR inh: 0%

What do the screens show for `CCOC(=O)Cc1c(Sc2ccccc2)c2cc(C)ccc2n1C`?
VDR inh: -3%

What do the screens show for `CC(=O)NC12CC3CC(CC(CC(=O)O)(C3)C1)C2`?
VDR inh: 6%

Results for O=C1C2C3c4ccccc4C(c4ccccc43)C2C(=O)N1Cc1cccnc1 (configuration not stated) ?
VDR inh: 4%

Results for COc1ccc(NC(=O)c2ccc(COc3ccc(C)cc3)o2)cc1 ?
VDR inh: 3%

What do the screens show for `CCn1cc(C(=O)N2CCN(c3ccc(F)cc3)CC2)c2cc(OC)c(OC)cc2c1=O`?
VDR inh: 0%

Results for Cc1nn(-c2ccc(F)cc2)c(-n2cccc2)c1C(=O)N1CCCCC1C (configuration not stated) ?
VDR inh: 2%

How did Cc1nnc(SCC(=O)Nc2cccc(C(F)(F)F)c2)n1Cc1ccco1 do in these assays?
VDR inh: -5%

What do the screens show for `Cc1ccc(S(=O)(=O)/N=C(/Nc2ccc([N+](=O)[O-])cc2)c2ccccc2)cc1`?
VDR inh: 6%

Results for Cc1ccc(Sc2ncccc2C(=O)NCC(c2ccc(F)cc2)N2CCOCC2)c(C)c1 (configuration not stated) ?
VDR inh: 4%

How did COc1cccc(-c2cc(=O)c3cc(NC(=O)c4ccc(Cl)cc4)ccc3[nH]2)c1 do in these assays?
VDR inh: 2%&2%

Results for Cc1cn(CC(=O)NCCNc2ccc([N+](=O)[O-])cn2)c(=O)[nH]c1=O ?
VDR inh: 1%

What do the screens show for `CC(C)CCn1c(SC(C)C(=O)NC2CC2)nc2ccccc2c1=O` (configuration not stated)?
VDR inh: -15%

What do the screens show for `COc1cccc(N2CCN(C(=O)c3cccc(NC(=O)c4nsc5ccccc45)c3)CC2)c1`?
VDR inh: 5%

What do the screens show for `Cc1ccc(C2C(C(=O)c3ccco3)=C(O)C(=O)N2c2ncccn2)cc1` (configuration not stated)?
VDR inh: -7%

How did COc1ccc(NC(=O)Cn2c(=O)n(CC3CCCO3)c(=O)c3ccccc32)c(OC)c1 (configuration not stated) do in these assays?
VDR inh: 25%&19%

How did O=C(C1=C[C@H](c2ccc(C(F)(F)F)cc2)C[C@H](OCc2ccc(CO)cc2)O1)N1CCCCCCC1 do in these assays?
VDR inh: -18%

What do the screens show for `O=C(COC(=O)c1ccc[nH]c1=O)Nc1cc(S(=O)(=O)N2CCCCCC2)ccc1Cl`?
VDR inh: -4%

What do the screens show for `COc1ccc(C)cc1S(=O)(=O)N1CCN(C/C=C/c2ccccc2)CC1`?
VDR inh: -27%

Results for CCCC(=O)Nc1ccc(C(=O)N2CCCC2)cc1 ?
VDR inh: -7%

How did CC(C)(C)NC(=S)N/N=C\c1ccc(-c2ccc([N+](=O)[O-])cc2)o1 do in these assays?
VDR inh: -2%

How did CCC(=O)c1cn(CC(=O)NCc2ccco2)c2ccccc12 do in these assays?
VDR inh: 34%[activator]

Results for COc1ccccc1C(CNC(=O)c1ccc(C)c(S(=O)(=O)N2CCCCC2)c1)N1CCCC1 (configuration not stated) ?
VDR inh: 1%

How did O=S(=O)(Nc1ccc(O)c(Sc2nc3ccccc3s2)c1)c1cccc2ccccc12 do in these assays?
VDR inh: -29%

How did CC(=O)OC1CC(OC(C)=O)[C@]2(C)C(CC(O)[C@]3(C)C2CC[C@@]2(C)C(c4ccoc4)OC(=O)C4O[C@]432)C1(C)C (some centres not stated) do in these assays?
VDR inh: 11%

Results for CCOC(=O)N1CCN(C(=O)c2cccc(S(=O)(=O)Nc3ccccc3Cl)c2)CC1 ?
VDR inh: -28%

Results for Cc1cccc(Oc2ccccc2N)c1 ?
VDR inh: -3%

Results for Cc1ccccc1-c1nnc(SCC(=O)N(C)C2CCCCC2)o1 ?
VDR inh: 8%

What do the screens show for `COc1ccc(-c2csc(N(C)C(=O)c3cccs3)n2)cc1`?
VDR inh: 2%

What do the screens show for `COc1cc(C(=O)Nc2ccc3nc(N4CCOCC4)sc3c2)cc(OC)c1OC`?
VDR inh: -11%

Results for Cc1nnc(SCc2cccc3ccccc23)n(N)c1=O ?
VDR inh: -6%

Results for CC(NC(=O)c1c(O)c2ccccc2[nH]c1=O)c1ccccc1 (configuration not stated) ?
VDR inh: -2%

What do the screens show for `COc1cc(NC(=O)CCN2CCN(Cc3ccccc3)CC2)cc(OC)c1`?
VDR inh: -3%

What do the screens show for `Cc1ccc2nc(N(CCCN(C)C)C(=O)c3ccc4c(c3)CCCC4)sc2c1`?
VDR inh: -14%

What do the screens show for `COC(=O)c1cc(C#N)c(SCc2ccccc2)nc1C`?
VDR inh: -18%

What do the screens show for `CCN1CCN(c2csc3ccc(Br)cc3c2=O)CC1`?
VDR inh: 11%

What do the screens show for `COc1ccc(C(=O)NNC(=O)c2ccccn2)cc1`?
VDR inh: -13%

How did COc1ccc(OCC(=O)N2CCN(C(=O)c3cccc(F)c3)CC2)cc1 do in these assays?
VDR inh: 0%

How did CCCCOC(=O)Nc1ccc(N2CCOCC2)cc1 do in these assays?
VDR inh: 9%

What do the screens show for `O=C1Nc2cc(Cl)c(Cl)cc2N(O)N1c1ccccc1Cl`?
VDR inh: -12%

How did COc1cccc(CNC(=O)c2ccccc2C(=O)NC(C)(C)C(=O)NCc2cccc(OC)c2)c1 do in these assays?
VDR inh: 0%

Results for COc1ccc(NC(=O)NCCCN2CCCC2=O)c(OC)c1 ?
VDR inh: -18%

How did Cc1ccc(CNC(=O)Cn2ccn(-c3cccc(Cl)c3)c(=O)c2=O)cc1 do in these assays?
VDR inh: 7%

What do the screens show for `Nc1nnn(CC(=O)N/N=C/c2ccncc2)n1`?
VDR inh: -14%

What do the screens show for `Cc1ccc(NC(=O)CSc2nnc(C3CC3)n2N)cc1S(=O)(=O)N1CCOCC1`?
VDR inh: -8%

How did C=CCNC(=O)/C(C#N)=C/c1ccc(C)o1 do in these assays?
VDR inh: -9%

What do the screens show for `CC(C)[C@@H](CC(=O)N[C@@H]1CCCC[C@H]1C(=O)N[C@H](CC(=O)N[C@@H](CCC(=O)O)CC(=O)O)Cc1ccccc1)NC(=O)C[C@H](Cc1c[nH]c2ccccc12)NC(=O)[C@@H]1CCCC[C@H]1N`?
VDR inh: 2%

How did CCCCNC(=O)CC1SC(=NCC)N(CC)C1=O (configuration not stated) do in these assays?
VDR inh: 6%

What do the screens show for `COCC(C)n1c(SCC(=O)Nc2nccs2)nc2ccccc2c1=O` (configuration not stated)?
VDR inh: 0%

What do the screens show for `COc1cc(C2C(C#N)=C(N)Oc3c2ccc2ccccc32)ccc1OCC(=O)Nc1cccc(C)c1` (configuration not stated)?
VDR inh: -11%

Results for COc1ccccc1NS(=O)(=O)c1ccc(C)c(NS(=O)(=O)c2cc(C(=O)O)cc(C)c2C)c1 ?
VDR inh: -14%

What do the screens show for `COc1ccc(C(=O)Nc2nc(-c3ccc(Br)cc3)ns2)cc1`?
VDR inh: -1%

How did Cc1cccc(NC(=O)CSc2nnc(C)c(=O)[nH]2)c1 do in these assays?
VDR inh: 1%

Results for C/C(=N\NC(=O)c1cccc(F)c1)c1ccc(NC(=O)Cc2ccccc2)cc1 ?
VDR inh: -3%

Results for c1cnc(N2CCN(c3ncc4c(n3)CCNC4)CC2)nc1 ?
VDR inh: 3%

How did Cc1cccc(N2CCN(S(=O)(=O)c3ccc4[nH]c5c(c4c3)CCCCC5)CC2)c1C do in these assays?
VDR inh: 7%

Results for Cc1ccc(CCNC(=O)Cn2nc(-c3ccc(C)cc3)ccc2=O)cc1 ?
VDR inh: 6%

What do the screens show for `C[C@H](NC(=O)c1nc[nH]c1C(=O)NCCCCCNC(=O)OC(C)(C)C)C(=O)OC(C)(C)C`?
VDR inh: -27%

Results for C/C(O)=c1/cnc2nc3ccccc3n2c1=O ?
VDR inh: -3%

Results for CCC(C)n1[nH]c(=O)cc1N (configuration not stated) ?
VDR inh: -3%

What do the screens show for `O=P(Cc1cccc[n+]1[O-])(c1ccccc1)c1ccccc1`?
VDR inh: 13%

Results for CCN(CC)CCCNC(=O)CN1C(=O)COc2ccc(S(=O)(=O)N3CCC(C)CC3)cc21 ?
VDR inh: 4%

Screens as filed in PubChem BioAssay.

The list is partial; the hit share may differ from the screen's.
